Assay outcomes: PubChem BioAssay, several laboratories
Mtb growth: M. tuberculosis H37Rv growth inhibitors, H37Rv strain (AID 1626); M. tuberculosis H37Rv growth inhibition; higher % means a stronger effect; one-dose inhibition, % at 10 µM; IC50 in µM for titrated hits; 220,000 compounds, 0.95% hits;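 active means confirmed in a dose series; inconclusive means inhibition above 80% but not taken into the dose series; inactive means below 80% or under 30% at every dose of the series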;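 further: bacteria incubated seven days before Alamar blue readout; 0% = bacteria only wells and 100% = bacteria with antibiotic wells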
RecA intein inh: inhibitors of M. tuberculosis RecA intein splicing | P9WHJ3 | cell-free RecA intein splicing, fluorescence | inhibition, %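 (about 9 µM by stock and volumes)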 | 290,000 compounds, 0.75% hits; in the data active means inhibition above about 30%; inconclusive means no clear call, values can overlap the other calls;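 further: 0% = vehicle wells and 100% = reference inhibitor control wells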
Target sequence (P9WHJ3 whole entry, looked up): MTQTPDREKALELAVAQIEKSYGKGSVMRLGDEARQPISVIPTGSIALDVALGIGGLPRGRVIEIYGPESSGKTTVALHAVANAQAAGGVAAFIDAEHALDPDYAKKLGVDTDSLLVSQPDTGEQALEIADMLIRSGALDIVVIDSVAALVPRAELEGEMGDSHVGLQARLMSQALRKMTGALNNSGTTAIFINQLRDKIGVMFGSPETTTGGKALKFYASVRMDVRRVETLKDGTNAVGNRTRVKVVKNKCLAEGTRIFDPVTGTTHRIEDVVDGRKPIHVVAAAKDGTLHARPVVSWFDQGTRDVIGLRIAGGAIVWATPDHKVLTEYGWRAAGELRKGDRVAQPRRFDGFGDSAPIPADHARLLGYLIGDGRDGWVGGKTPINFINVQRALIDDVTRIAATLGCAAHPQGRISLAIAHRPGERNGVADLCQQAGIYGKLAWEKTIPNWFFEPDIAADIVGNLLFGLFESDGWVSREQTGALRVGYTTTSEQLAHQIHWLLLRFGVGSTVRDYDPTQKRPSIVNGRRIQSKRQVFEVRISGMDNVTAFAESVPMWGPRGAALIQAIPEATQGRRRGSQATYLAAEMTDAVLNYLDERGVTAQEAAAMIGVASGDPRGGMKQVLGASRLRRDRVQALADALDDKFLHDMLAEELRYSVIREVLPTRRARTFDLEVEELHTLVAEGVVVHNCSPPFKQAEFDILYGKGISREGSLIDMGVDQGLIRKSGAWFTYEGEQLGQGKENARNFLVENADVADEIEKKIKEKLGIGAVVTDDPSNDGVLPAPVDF
YopH PTP inh: YopH (Yersinia) phosphatase inhibition; fluorescence Ex485/Em525; inhibition, %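 (about 10 µM by stock and volumes)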; 140,000 compounds, 0.16% hits; AID 898;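 active means inhibition of 50% or more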;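 further: controls were vehicle for no effect and minimum signal wells for full effect; inactives centre near -20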
Mtb betalactam: beta-lactam sensitization of Mtb H37Rv. M. tuberculosis H37Rv growth with meropenem, percent inhibition; hits of this screen are not shown here. inhibition, % at 25 µM. 330,000 compounds, 0.27% hits;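 active means about 74% or more and at least 40 points above the plate without the antibiotic, then above 30% in a dose series; inconclusive means first-round hits that could not be retested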;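 further: growth measured after seven days incubation then overnight dye step; 0% = bacteria only wells and 100% = bacteria with antibiotic; twin plates without the antibiotic show which effects depend on it; some results filed as inactive read as strong as hits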
Arbovirus anti: blocks arbovirus infection. arbovirus infection cell-based antiviral screen. inhibition, % at 10 µM. 200,000 compounds, 0.37% hits. AID 1251;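 active means inhibition from about 30%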;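 further: bluetongue infection of BSR cells; cell survival read as ATP light after 72 h; 0% = infected wells without compound and 100% = uninfected wells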
Arbovirus anti repeat: recorded beside Arbovirus anti, whose call it bears; inhibition, %; measured here: 10K subset replicate screen; many hits read low in the repeat;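 first of two repeat runs on a subset; 0% = infected and 100% = uninfected wells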
* hit, by the source's call; ? = inconclusive; . = no result given. This is a subset. The share of hits here may be higher or lower than overall.

SMILES	Mtb growth	RecA intein inh	YopH PTP inh	Mtb betalactam	Arbovirus anti	others
C#CCOc1c(Br)cc(/C=N\NC(=O)CN2CCOCC2)cc1OCC	-5%	-0.7	-26	-6	-4
CCCN(C(=O)CSCc1ccc(Cl)cc1)c1c(N)n(Cc2ccccc2)c(=O)[nH]c1=O	.	0.5	.	-1	.
C/C(=N\NC(=O)CCC(=O)N/N=C(\C)c1ccc(C)o1)c1ccc(C)o1	.	2.8	.	15	.
COc1ccc(OC)c(NC(=S)N2CCN(C/C=C/c3ccccc3)CC2)c1	-1%	1.7	-63	-6	2
Cc1ccc(NC(=O)c2cccc(N3C(=O)C4C5CCC(C5)C4C3=O)c2)c(C)c1 (configuration not stated)	-8%	2.0	-31	1	1
c1ccc(SCCN2CCc3ccccc3C2)cc1	0%	.	-12	-3	-11
O=C(CSc1ncnc2c1oc1ccccc12)N1CCCc2ccccc21	5%	4.5	-51	-6	8
O=C(Nc1ccc2oc(-c3ccccc3F)nc2c1)c1ccc([N+](=O)[O-])o1	.	-1.5	.	99	.
COC(=O)c1ccc(NC(=S)NCCc2ccccc2)cc1	10%	2.2	-29	18	9
Cc1nc2c(C)cccc2cc1C(=O)N/N=C/c1cccnc1	1%	-0.1	-18	0	-2
Cn1cnc([N+](=O)[O-])c1Sc1nc2ccccc2[nH]1	11%	13	.	93	.
FC(F)(F)c1cc(Cl)c2nnc(-c3ccccn3)n2c1	.	-2.5	.	2	.
CCN(CC)S(=O)(=O)c1cc(NC(=O)Cc2ccsc2)ccc1C	.	1.9	.	-6	.
COc1ccc(CNc2nc3ccccc3n2CCN2CCCCC2)cc1	0%	-1.1	.	7	6
CSCC[C@H](NC(=O)[C@@H]1Cc2ccccc2CN1)C(=O)NC[C@H]1CC[C@H](C(=O)O)CC1	.	2.3	.	-3	.
CCOc1ccc(N2CC(C(=O)N3CCc4ccccc4C3)CC2=O)cc1 (configuration not stated)	-8%	1.9	0	4	3
CC(C)NC(=O)CSc1nc(N)c(-c2ccccc2)c(=O)[nH]1	1%	0.2	.	-1	-1
O=C(Nc1cccc(C(F)(F)F)c1)C(Sc1n[nH]c(=O)[nH]c1=O)c1ccccc1 (configuration not stated)	-1%	1.4	.	-7	.
CC(CC(=O)Nc1ccccc1C(F)(F)F)c1ccccc1 (configuration not stated)	-11%	-1.5	-29	-1	2
COC(=O)CNC(=O)Cn1c(=O)n(Cc2ccc(F)cc2)c(=O)c2sccc21	.	-0.2	.	-4	.
CC(C)CC(=O)Nc1ccccc1Oc1ccccc1	6%	1.1	-27	19	-16
Cc1cc(C)n2nc(SCc3ccccc3F)nc2n1	.	-5.4	.	6	.
Cc1ccc(C2CC(c3ccco3)=NN2S(C)(=O)=O)cc1 (configuration not stated)	0%	2.2	-10	-3	-5
Cc1ccc(NC(=O)/C(C#N)=C(\N)C(Cl)(Cl)Cl)nc1	-9%	1.9	.	-5	-3
COc1cccc(CNCCO)c1OCc1ccc(Cl)cc1	0%	0.3	.	-6	-2
(further entries)
SMILES	Mtb growth	RecA intein inh	YopH PTP inh	Mtb betalactam	Arbovirus anti	others
CC(CCCC(C)(C)O)NC(=O)c1ccc(OC2CCN(C(=O)C3CC3)CC2)cc1 (configuration not stated)	4%	-0.9	.	-3	4
CN(C)CCCN(CCCN(C)C)C(=S)Nc1ccc(S(=O)(=O)N2CCOCC2)cc1	2%	-4.7	.	-13	.
CC(=O)Nc1ccc(N=Cc2nc(-c3ccc(C)cc3)oc2O)cc1	-4%	-3.5	-21	6	-2
CCOC(=O)C1=C(N)OC2=C(C(=O)CCC2)C1c1ccc2c(c1)OCO2 (configuration not stated)	.	2.2	.	-1	.
COc1cccc(C(=O)/C=C2\NCCc3cc(OC)c(OC)cc32)c1	.	7.3	.	0	.
CCOc1ccc(NC(=S)Nc2ccc(OC)cc2)cc1	?	0.1	.	10	5
CC1C/C(=N/Nc2nc3ccccc3[nH]2)CC(C)(C)C1 (configuration not stated)	4%	0.5	-22	56	-24
O=C(O)CC/C(=C\c1ccc(N2CCCC2)c([N+](=O)[O-])c1)c1nc2ccccc2s1	2%	6.8	.	1	54*
O=C(Nc1cccc([N+](=O)[O-])c1)c1ccc2nc(N3C(=O)CCC3=O)sc2c1	-7%	4.2	1	-19	4
COc1ccc(C2=NC(=O)/C(=C\c3cc(OC)c(OC)c(OC)c3)O2)cc1	?	.	-28	99	2
CCC(CC)c1nnc(NC(=O)CSCC(=O)Nc2cc(C)on2)s1	.	4.3	.	-5	.
O=S(=O)(c1ccccc1Cl)N1CCC(Cc2ccccc2)CC1	.	8.9	.	0	.
COc1ccccc1CCc1nnc(CCC(=O)N(C)Cc2cccc3ncccc23)o1	1%	2.2	.	-1	3
NNC(=O)c1[nH]c2ccc([N+](=O)[O-])cc2c1-c1ccccc1	.	3.5	.	15	.
Cn1c(=O)c2cc(S(=O)(=O)N3CCC(c4ccccc4)CC3)ccc2n(C)c1=O	-5%	2.0	-37	6	10
O=[N+]([O-])c1ccccc1Nc1c2ccccc2nc2ccccc12	3%	-2.1	.	4	2
COc1ccccc1NC(=O)c1ccc(NC2=NC3CS(=O)(=O)CC3S2)cc1 (configuration not stated)	.	-2.4	.	0	.
CC1(C)CC(=O)C2=C(C1)NC1=C(C(=O)c3ccccc31)C2c1cc([N+](=O)[O-])ccc1O (configuration not stated)	4%	10	.	6	.
O=C(COc1ccc(S(=O)(=O)N2CCOCC2)cc1)NCCCn1ccnc1	.	-1.8	.	4	.
O=C(c1cccc2ccccc12)C1CCCN(C(=O)c2ccc(N3CCOCC3)cc2)C1 (configuration not stated)	4%	6.6	.	-2	-5
CC(=O)Nc1ccc2nc(NC(=O)c3ccc([N+](=O)[O-])s3)sc2c1	45%	-3.3	.	100	.
O=[N+]([O-])c1ccc(C2CCCC/C2=N\OCc2cccc(F)c2)c([N+](=O)[O-])c1 (configuration not stated)	.	13	-44	0	-9
COc1cc(CN2CCCC(C)C2)cc([N+](=O)[O-])c1O (configuration not stated)	-5%	-5.5	-29	-3	-1
CCOCc1c(C(=O)Nc2cc(OCC)c(N3CCOCC3)cc2OCC)oc2ccccc12	-12%	-0.4	.	-1	0
Cc1cc(C)n(-c2ccccc2[N+](=O)[O-])n1	-3%	-1.4	.	-5	2
Other structures.
SMILES	Mtb growth	RecA intein inh	YopH PTP inh	Mtb betalactam	Arbovirus anti	others
Fc1ccc(CO/N=C/C2=C(Cl)c3ccccc3CC2)cc1	13%	7.9	0	64	7
O=C1Nc2cc(Cl)cnc2N2CCCC12 (configuration not stated)	2%	-1.5	0	-7	-3	Arbovirus anti repeat=4
Cc1ccc2c(c1)c1c(n2CC(O)CNC2CCCC2)CCCC1 (configuration not stated)	27%	-6.6	.	2	.
CCOC(=O)c1nnn2c1nc(N1CCN(c3ccccc3)CC1)c1ccccc12	4%	-1.4	.	-6	.
COc1ccc(N(CC(=O)NC2CCCCC2)S(=O)(=O)c2cccnc2)cc1	-6%	-0.1	-15	-3	-4	Arbovirus anti repeat=-5
CSc1cccc(NC(=S)NCCCN2CCN(c3ccc(F)cc3)CC2)c1	44%	-0.1	.	88	-9
Cc1nn(C)cc1CNCc1c(C(=O)N2CCCCC2)nc2c(C)cccn12	15%	0.9	.	0	7
CCC(=O)Nc1cccc(-c2ccc(N3CCC(C)CC3)nn2)c1	.	1.7	.	?	.
O=C(c1cccs1)n1nc(-c2ccccc2)nc1NCc1ccco1	-10%	-8.6	-21	3	-12
COc1ccc(OCC(=O)Nc2c(Cl)ccc3nsnc23)cc1	.	-3.8	.	2	.
Cc1ccc(NC(=O)c2cnccn2)c(Br)c1	.	-1.5	.	9	.
O=C(CN1CCN(S(=O)(=O)c2ccc(Cl)cc2)CC1)Nc1ccc2c(c1)OCCO2	6%	3.6	-34	-10	-7
CN(CC(=O)Nc1cccc(F)c1)C(=O)CSc1nc2ccccc2s1	.	1.5	.	1	.
O=C(NC(O)C(=O)c1ccccc1)c1ccccn1 (configuration not stated)	.	2.5	.	5	.
O=C(NCC(=O)N1CCN(c2ccccc2O)CC1)c1ccc2c(c1)OCO2	.	-3.2	.	-6	.
CC(=O)C1=C(O)C(=O)N(CCCCCC(=O)O)C1c1ccc(N(C)C)cc1 (configuration not stated)	1%	-0.2	-28	1	-2
COCCn1cc(C(=O)NCCN(C)C)c2c3ccccc3n(C)c2c1=O	.	-4.2	.	4	.
CCN(CC)C(=O)C(=O)N/N=C/c1ccc(Br)cc1	1%	-0.7	-40	3	11
CCN(CC)c1ccc(/C=N/Nc2ccccc2)c(O)c1	70%	3.9	51*	1	-28
CC(C)c1[nH]nc2c1C(C1C=CCCC1)C(C#N)=C(N)O2 (configuration not stated)	-11%	7.5	.	-3	.
OC(CNCc1ccccc1Cl)COc1ccc(F)cc1 (configuration not stated)	.	-0.3	.	9	.
CCOC(=O)N1CCN(c2c(N3CCN(c4cccc(C)c4C)CC3)c(=O)c2=O)CC1	-5%	.	-27	.	-6
O=c1[nH]nc(Cc2ccc(-c3ccc(Cl)cc3)o2)c2ccccc12	0%	3.5	-16	4	3
C/C(=N\NC(=O)c1nnn(-c2nonc2N)c1-c1ccccc1)c1cccnc1	.	1.0	.	-3	.
Cc1c(NC(=O)Cc2noc3ccccc23)cccc1[N+](=O)[O-]	-8%	-2.1	.	6	1
(list continues)
SMILES	Mtb growth	RecA intein inh	YopH PTP inh	Mtb betalactam	Arbovirus anti	others
Cc1ccc(-c2nnc(SCC(=O)Nc3ccccc3F)o2)cc1	23%	3.9	-50	8	0	Arbovirus anti repeat=-11
CCCCN(C)CCN1C(=O)C2C(C(=O)Nc3ccc(C)cc3)C3C=CC2(O3)C1C(=O)NC1CCCCC1 (configuration not stated)	.	-0.2	.	3	.
CN(c1ccccc1)S(=O)(=O)c1ccc(Cl)nc1	2%	-3.3	.	2	2
Cc1cc(OCC(=O)NCc2ccncc2)c2c(C)c(C)c(=O)oc2c1	.	1.3	.	1	.
CCc1nnc(NC(=O)C(=O)NCCOC(=O)c2ccccc2Cl)s1	-10%	-2.1	-22	7	5
CC(=O)c1cccc(OCC(=O)N2CCCc3ccccc32)c1	.	1.2	.	2	.
Oc1c(Cl)cccc1C=Nc1cc(C(F)(F)F)ccc1N1CCCC1	.	0.9	4	-9	8
CCOC(=O)N1CCN(S(=O)(=O)/C=C/c2ccccc2)CC1	-18%	-0.1	-35	?	3
COc1ccccc1OCCCCN1CCN(C(c2ccccc2)c2ccccc2)CC1	54%	-1.5	-10	84	-18
Cc1nc2ccc(S(=O)(=O)NC(C(=O)NCc3cccs3)C(C)C)cc2s1 (configuration not stated)	-4%	-1.1	-33	-5	3	Arbovirus anti repeat=0
O=C(CCSCCc1ccncc1)NCCCN1CCOCC1	-6%	1.4	-48	-14	8
O=C(NCc1ccncc1)c1nnc(Cc2c(F)cccc2Cl)o1	-6%	1.8	-19	0	0
S=C(Nc1ccccc1Cl)N1CCCC1	0%	1.4	.	0	2
CC(=O)Nc1ccc2c(c1)nc(CCN1CCOCC1)n2C	-1%	2.3	-29	39	0
Cc1cn2c(=O)c(C(=O)NCc3ccc4c(c3)OCO4)cnc2s1	.	1.0	.	-2	.
CCSc1nnc(NC(=O)CSC2=NN3CCCC(=O)N=C3S2)s1	0%	0.1	.	-2	8
CC1(C)CC(=O)c2ccc(OCc3ccc([N+](=O)[O-])cc3)cc2O1	5%	.	.	7	.
CCc1nc2scc(-c3cccs3)c2c(=O)o1	7%	-0.5	5	87	4
CCCC1CCC(c2ccc(OCC)cc2)=CC1=O (configuration not stated)	.	7.1	.	-4	.
Cc1cc(C)nc(N(C#N)Cc2ccc(Cl)cc2)n1	0%	3.6	.	-5	-17
O=C(CN1C(=O)c2ccccc2C1=O)Nc1ccccc1C(=O)N1CCCC1	-1%	-2.6	-29	3	0
COc1cc(CNc2ccc3[nH]c(=O)[nH]c3c2)cc(Br)c1OCC(=O)NC(C)(C)C	-5%	1.4	-17	18	12
Cc1ccc2c(c1)C1CN(C)CCC1N2C(=S)Nc1cccnc1 (configuration not stated)	-4%	-0.4	.	8	-4
Cc1c(C(=O)O)oc2ccc(S(=O)(=O)NCc3ccc4c(c3)OCO4)cc12	.	0.6	-53	-11	12
Cc1cccc(C(=O)NCCCNC(=O)c2cccc(C)c2)c1	.	-1.6	.	-2	.
Cc1cc(NC(=O)c2cccc(Br)c2)no1	.	4.8	.	-6	.
CCNNC(=O)C(O)(Cc1ccccc1)Cc1ccccc1	.	2.8	.	0	.

A portion from the list above, for reference:
SMILES	Mtb growth	RecA intein inh	YopH PTP inh	Mtb betalactam	Arbovirus anti	others
Cc1ccc(-c2nnc(SCC(=O)Nc3ccccc3F)o2)cc1	23%	3.9	-50	8	0	Arbovirus anti repeat=-11
CCCCN(C)CCN1C(=O)C2C(C(=O)Nc3ccc(C)cc3)C3C=CC2(O3)C1C(=O)NC1CCCCC1 (configuration not stated)	.	-0.2	.	3	.
CN(c1ccccc1)S(=O)(=O)c1ccc(Cl)nc1	2%	-3.3	.	2	2
